Source: PubChem (several laboratories)
CBX7 inh – blocks human CBX7 binding to H3K27me3 peptide; AlphaScreen His6-CBX7 / biotin-H3K27me3 peptide binding; hits give low values; normalised signal (fraction of DMSO) (test concentration not listed); 66,000 compounds, 1.1% hits; in the data active = normalised signal below about 0.5;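 note: 100 nL library stock added to about 20 µL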
Target sequence (O95931 whole entry, looked up): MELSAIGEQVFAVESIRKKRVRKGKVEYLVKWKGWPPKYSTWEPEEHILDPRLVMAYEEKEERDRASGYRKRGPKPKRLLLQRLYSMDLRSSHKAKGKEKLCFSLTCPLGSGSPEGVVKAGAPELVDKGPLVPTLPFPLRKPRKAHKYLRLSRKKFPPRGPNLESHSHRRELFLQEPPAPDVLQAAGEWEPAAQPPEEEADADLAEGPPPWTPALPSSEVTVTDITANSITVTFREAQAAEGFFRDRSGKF
CBX7 inh z-score – further read-out of CBX7 inh, marked with its call; z-score; measured here: z-score of CBX7 signal; some inactives read as strong as hits; reference of the scale not given here;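 same signal on another scale; lower means less binding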
An asterisk follows results filed as active. An excerpt; rates above refer to the full screens.

| SMILES | CBX7 inh | CBX7 inh z-score |
| --- | --- | --- |
| O=C1CN(C(=O)c2cccc(F)c2)C(c2ccc(F)cc2)c2cc(Cl)ccc2N1 (stereo not given) | 0.985 | -0.145 |
| O=C(CNC(=O)Cn1ccc2ccccc2c1=O)NCCN1CCOCC1 | 0.981 | -0.191 |
| COc1ccc(CNC(=O)c2cc(-c3cccs3)nc3ccccc23)c(OC)c1 | 1.12 | 3.1 |
| Nc1nc(-c2ccc(Cl)cc2)nc2c1c(=O)oc1ccccc12 | 0.968 | -0.983 |
| Cc1cccc(-c2nc(Nc3ccc(F)cc3)c3ccccc3n2)c1 | 0.81 | -2.01 |
| Cc1cccc(N2CCN(C(=O)C3CCN(c4nc5ccccc5[nH]4)CC3)CC2C)c1 (stereo not given) | 0.803 | -2.27 |
| COc1cccc(-c2nn(C)c3sc(C(=O)N4CCN(Cc5ccccc5)CC4)cc23)c1 | 0.903 | -1.25 |
| CCCCNS(=O)(=O)c1ccc2nc(-c3cccs3)cc(C(=O)NCCCOCC)c2c1 | 0.945 | -0.757 |
| CC(=O)Nc1ccc2c(c1)ncn2-c1ccc(C)cc1 | 1.01 | 0.219 |
| COc1ccc2oc(=O)c(-c3cn4ccccc4n3)cc2c1 | 1.06 | 0.623 |
| CCOc1ccc(CCNC(=O)C2CCCN(C(=O)c3cc4sccc4n3CC)C2)cc1OCC (stereo not given) | 0.914 | -0.377 |
| Cc1cc(N2CCCCC2)nc2ccc(NC(=O)Cc3ccc(Cl)c(Cl)c3)cc12 | 1.1 | 1.77 |

Compound profiles (already shown). Order of values: CBX7 inh | CBX7 inh z-score
`O=C(CNC(=O)Cn1ccc2ccccc2c1=O)NCCN1CCOCC1` is listed as 0.981 | -0.191
`CCCCNS(=O)(=O)c1ccc2nc(-c3cccs3)cc(C(=O)NCCCOCC)c2c1` is listed as 0.945 | -0.757

Other results
| SMILES | CBX7 inh | CBX7 inh z-score |
| --- | --- | --- |
| Cc1ccc2cccc(Oc3nc(C)nc4sc(-c5ccccc5)cc34)c2n1 | 1.04 | 0.0464 |
| CC1CCCN(C(C(=O)NC2CCCCC2)c2ccc(Cl)cc2)C1 (stereo not given) | 0.896 | -2.59 |
| COc1cccc(N2C(=O)CC(N3CCN(S(=O)(=O)c4ccccc4)CC3)C2=O)c1 (stereo not given) | 1.03 | 0.341 |
| CC(=O)N1CCN(c2nc(-c3ccccc3)c3cc(Cl)ccc3n2)CC1 | 1.12 | 0.464 |
| Cc1ccnc(NC(=O)Nc2ccccc2Cl)c1 | 0.961 | -0.172 |
| Cc1csc2ncc(C(=O)Nc3ccccc3C(F)(F)F)c(=O)n12 | 1.06 | 2.16 |
| Cc1csc2ncc(C(=O)Nc3ccccc3F)c(=O)n12 | 1.06 | 2.18 |
| COc1ccccc1OCc1nc(-c2ccc(Cl)cc2Cl)no1 | 1.47 | 2.07 |
| Cc1cc2nc(Nc3nc4ccccc4c(=O)[nH]3)nc(C)c2cc1C | 0.967 | -0.394 |
| CC(C)CCN(C)C1CCN(C(=O)Nc2ccccc2)CC1 | 1.02 | 0.0178 |
| COc1ccc(-c2ccc(Cc3nc(Cc4ccccc4)no3)cc2)cc1 | 1.07 | 0.851 |
| CCc1ccc(NC(=O)C2CC(c3ccc(F)cc3)=NO2)cc1 (stereo not given) | 1.05 | 1.99 |

Carrying on.
| SMILES | CBX7 inh | CBX7 inh z-score |
| --- | --- | --- |
| Cc1cc(C)c(NC(=O)c2cncc(Br)c2)c(C)c1 | 0.95 | -0.98 |
| CC(C)CN(CCCNC(=O)c1cc(Nc2ccccc2)nc2ccccc12)CC(C)C | 1.03 | 0.768 |
| CCN(CCCNC(=O)CCc1nc(-c2ccccc2F)no1)c1ccccc1 | 0.773 | -4.9 |
| COc1ccc(NC(=O)c2ccc(NC3=NC4CS(=O)(=O)CC4S3)cc2)cc1OC (stereo not given) | 0.989 | -0.205 |
| Cc1cc(N2CCC(C)CC2)nc2ccc(NC(=O)C3CCC(C)CC3)cc12 (stereo not given) | 1.11 | 1.22 |
| CCCCN(C)CCCNC(=O)c1cc(=O)[nH]c2ccc(S(=O)(=O)N3CCCC(C)C3)cc12 (stereo not given) | 0.932 | -0.945 |
| Cc1ccc(CCNC(=O)c2ccc3c(c2)NC(=O)CN3C)cc1 | 1.05 | 0.0545 |
| CC1(C(=O)NC2CCCC2)CCC(=O)N1CCC1=CCCCC1 (stereo not given) | 1.24 | 3.03 |
| COc1cccc(C(=O)Nc2cccc(-c3nc4cc(C)cc(C)c4o3)c2)c1 | 1.02 | 0.347 |
| O=c1[nH]c(Nc2nc3ccccc3o2)nc2ccccc12 | 1.1 | 1.21 |
| Cc1ccc(-c2noc(CN(C(=O)c3ccc(F)cc3)C(C)C)n2)cc1 | 1.04 | 0.241 |
| Cc1nc2ccc(S(=O)(=O)NC(C(=O)Nc3ccc(C)c(C)c3)C(C)C)cc2s1 (stereo not given) | 0.961 | -0.737 |

Additional entries
| SMILES | CBX7 inh | CBX7 inh z-score |
| --- | --- | --- |
| COC(=O)c1c(NC(=O)COc2ccc(Cl)cc2)sc(C)c1C | 0.861 | -1.74 |
| O=C(CSc1nnc(Cc2cc(=O)[nH]c(=O)[nH]2)n1-c1ccc(Cl)cc1)Nc1nccs1 | 0.976 | -0.369 |
| Fc1cccc(F)c1-c1noc(-c2cc(-c3ccc(Cl)cc3)nc3ccccc23)n1 | 1.16 | 0.211 |
| Cc1oc(-c2ccccc2F)nc1CSCC(=O)NCc1cccnc1 | 1.09 | 0.189 |
| CC1(C)CC(=O)C2=C(C1)NC(=O)CC2c1cccc(C(F)(F)F)c1 (stereo not given) | 1.07 | 0.92 |
| Cc1nc(NC(=O)c2ccccc2)sc1-c1csc(NCc2ccccc2)n1 | 1.01 | 0.156 |
| CCCC(=O)Nc1cccc(Oc2nc(C)cc(C)c2C#N)c1 | 0.975 | -0.594 |
| CCC(Sc1nc(NCc2ccccc2)c2ccccc2n1)C(=O)Nc1ccc2c(c1)OCO2 (stereo not given) | 1.06 | 0.174 |
| CCCCN(C)C(=O)c1sc2ncn(CC(=O)Nc3ccc(C)c(Cl)c3)c(=O)c2c1C | 1.07 | 1.94 |
| CCOc1cc2c(cc1OCC)C(c1cc(Cl)c(O)c(OCC)c1)NCC2 (stereo not given) | 0.982 | -0.302 |
| Cc1nccc2[nH]c(=O)c(C(=O)NC3CCCc4ccccc43)cc12 (stereo not given) | 1.18 | 1.02 |
| COc1cc2c(C(=O)N(C)CCc3ccccn3)cn(CC(C)C)c(=O)c2cc1OC | 0.751 | -2 |

Quoted at random: four compounds from above, in no set order.
| SMILES | CBX7 inh | CBX7 inh z-score |
| --- | --- | --- |
| CCOc1cc2c(cc1OCC)C(c1cc(Cl)c(O)c(OCC)c1)NCC2 (stereo not given) | 0.982 | -0.302 |
| CCCC(=O)Nc1cccc(Oc2nc(C)cc(C)c2C#N)c1 | 0.975 | -0.594 |
| Cc1nc(NC(=O)c2ccccc2)sc1-c1csc(NCc2ccccc2)n1 | 1.01 | 0.156 |
| CCC(Sc1nc(NCc2ccccc2)c2ccccc2n1)C(=O)Nc1ccc2c(c1)OCO2 (stereo not given) | 1.06 | 0.174 |

(listing goes on)
| SMILES | CBX7 inh | CBX7 inh z-score |
| --- | --- | --- |
| Cc1nc2cc(-c3ccc(Cl)cc3)nn2c(C)c1CCC(=O)NC1CCCCCC1 | 1.02 | 0.428 |
| COc1ccc(N2C(=O)c3ccc(C(=O)N4CCCCCC4)cc3C2=O)cc1 | 1.06 | 0.809 |
| CC(NC(=O)Cc1ccc(F)cc1)C(c1cccs1)N1CCN(c2ccc(F)cc2)CC1 (stereo not given) | 0.947 | -1.73 |
| CCN(CC)C(=O)c1ccc2c(c1)N(Cc1cccc(Cl)c1)C(=O)c1ccccc1S2=O (stereo not given) | 0.809 | -1.2 |
| COc1ccc(-n2cnc3cc(C(=O)NCc4ccccc4Cl)ccc32)cc1 | 0.989 | -0.139 |
| CCOC(=O)N1CCC(NC(=O)CSCc2nc(-c3ccc(OC)c(OC)c3)oc2C)CC1 | 1.03 | 0.481 |
| CCCCNC(=O)Cn1cnc2ccc(S(=O)(=O)N3CCC(C)CC3)cc2c1=O | 1.2 | 1.82 |
| Fc1ccc(Nc2nc(-c3ccncc3)nc3ccccc23)cc1F | 1.02 | 0.474 |
| COc1ccc(C(=O)c2cn(Cc3ccc(Cl)cc3)c3ccccc3c2=O)cc1 | 0.624 | -1.33 |
| Cc1ccc2c(c1)N(CCCC(=O)NCc1ccc(F)cc1)C(=O)CO2 | 1.3 | 0.603 |
| CCC(=O)N1CCc2cc(S(=O)(=O)Nc3c(CC)cccc3CC)ccc21 | 1.11 | 2.17 |
| COc1ccc(NC(=O)CSc2nc3nc(C)c(Cc4cc(C)ccc4C)c(C)n3n2)cc1OC | 0.835 | -3.26 |

Next records follow:
| SMILES | CBX7 inh | CBX7 inh z-score |
| --- | --- | --- |
| Cc1cc(C)n(-c2nc3ccccc3nc2Nc2ccc3[nH]c(=O)[nH]c3c2)n1 | 1.01 | 0.371 |
| CCCN1C(=O)C(O)(CC(=O)c2ccc(CC)cc2)c2cc(Br)ccc21 (stereo not given) | 0.0492* | -1.07* |
| CC(C)N1C(=O)CCC1C(=O)N1CCN(c2cccc(Cl)c2)CC1 (stereo not given) | 1.04 | 0.69 |
| CCCCNC(=O)c1ccc2c(c1)N=C(C)c1c(C)ccc(C)c1S2 | 1 | 0.0694 |
| COCCNC(=O)CSCc1cnn(-c2ccccc2)c1-n1cccc1 | 1.05 | 2.48 |
| O=C(NC1CCCC1)c1cc(-c2ccccn2)nc2ccc(S(=O)(=O)N3CCOCC3)cc12 | 0.929 | -2.14 |
| Cc1c(C(=O)Nc2ccc(F)c(F)c2)oc2ccc(S(=O)(=O)N3CCCCC3)cc12 | 1.01 | 0.482 |
| Cc1c(C(=O)n2ncc(C#N)c2N)nnn1-c1nonc1N | 0.946 | -1.43 |
| Cc1ccc2nc(-c3ccc(NC(=O)c4ccc(Br)cc4)cc3)oc2c1 | 1.17 | 0.688 |
| Cc1nc2cc(-c3cccc(F)c3)nn2c(C)c1CCC(=O)NC1CCCCCC1 | 0.998 | -0.0424 |
| COC(=O)CNC(=O)Cn1cnc2sc(C)c(S(=O)(=O)N3CC(C)CC(C)C3)c2c1=O (stereo not given) | 1.01 | 0.262 |
| COc1ccc(CCNC(=O)c2cc(-c3cccc(Cl)c3)on2)cc1OC | 1 | -0.00882 |

Going on with the list.
| SMILES | CBX7 inh | CBX7 inh z-score |
| --- | --- | --- |
| Cc1ccc(-c2cc(C(=O)Nc3ccc(Oc4ccccc4)cc3)c3ccccc3n2)cc1C | 1.25 | 0.883 |
| CS(=O)(=O)Nc1ccc(Cl)cc1C(=O)c1ccccc1 | 0.936 | -1.75 |
| Cc1cc(N2CCC(C)CC2)nc2ccc(NC(=O)C3CC3)cc12 | 0.911 | -1.5 |
| Cc1ccc(OCc2nc(C#N)c(N3CCC(C(N)=O)CC3)o2)cc1 | 0.879 | -2.2 |
| COc1ccc(N2C(=O)N(c3ccc(OC)cc3)C3CS(=O)(=O)CC32)cc1 (stereo not given) | 1.13 | 1.97 |
| COc1ccc(-c2nnc(SCC(=O)Nc3cccc(C(F)(F)F)c3)n2-c2ccccc2)cc1OC | 1.15 | 2.09 |
| CCN(CC)C(=O)Cn1cnc2sc(C(=O)Nc3ccc(C)c(F)c3)c(C)c2c1=O | 1.02 | 0.64 |
| CCc1nnc(NC(=O)c2ccc(S(=O)(=O)N(C)C3CCCCC3)cc2)o1 | 0.0649* | -10.3* |
| O=C(CSc1nc2ncccc2[nH]1)Nc1ccc(F)cc1 | 1.04 | 1.35 |
| COc1ccc(NC(=O)CSc2nc(-c3ccc(F)cc3)[nH]c2-c2ccc(C)cc2)cc1OC | 0.824 | -8.34 |
| CCCCCOc1ccc(C(=O)N(Cc2cccc(Cl)c2)C2CCS(=O)(=O)C2)cc1 (stereo not given) | 0.837 | -0.163 |
| Cc1nc(-c2ccc(NS(=O)(=O)c3ccccc3)cc2)cs1 | 1.05 | 2.04 |

(listing goes on)
| SMILES | CBX7 inh | CBX7 inh z-score |
| --- | --- | --- |
| COc1ccc(-c2noc(CCC(=O)Nc3ccc(F)cc3Cl)n2)cc1 | 1.03 | 0.0268 |
| COc1ccc(-c2nc(Nc3cccc4ccccc34)sc2-c2ccccc2)cc1 | 0.749 | -3.97 |
| Cc1cc(N2CCC(C)CC2)nc2ccc(NC(=O)CCC(=O)NCC3CCCO3)cc12 (stereo not given) | 0.837 | -7.11 |
| Cc1ccc(-c2noc(COc3ccc4ccccc4c3)n2)cc1 | 1.5 | 0.589 |
| CCOc1ccc(-c2cc(C(=O)NCC3CCCN3CC)c3ccccc3n2)cc1 (stereo not given) | 1.17 | 3.22 |
| CCCCN(CCCC)S(=O)(=O)c1ccc2oc(C(=O)NCCN3CCOCC3)c(C)c2c1 | 1.01 | 0.294 |
| Cc1nc2c(-c3ccc(F)cc3)c(C)nn2c(C)c1CCC(=O)NCCc1ccccc1 | 0.99 | -0.24 |
| CCOC(=O)c1c(-c2ccccc2)c2oc3ccccc3c2[nH]c1=O | 0.992 | -0.299 |
| N#Cc1nc(COc2ccccc2F)oc1NCCc1ccccc1 | 0.491* | -9.25* |
| Cc1nc(CN2CCN(C(=O)NC3(c4ccccc4)CC3)CC2)cs1 | 1.01 | 0.244 |
| Cc1ccc(S(=O)(=O)c2c[nH]c3ccc(F)cc3c2=O)cc1 | 1 | 0.0474 |
| CC(C)Cc1cc(C(=O)Nc2c(F)cc(F)cc2Br)no1 | 1.09 | 1.75 |

More compounds:
| SMILES | CBX7 inh | CBX7 inh z-score |
| --- | --- | --- |
| Cn1nc(-c2ccc(C(=O)NCCN3CCOCC3)cc2)c2ccccc2c1=O | 1.01 | 0.376 |
| O=C(Cn1c(-c2cscn2)nc2ccccc21)Nc1ccc(Oc2ccc(F)cc2)cc1 | 0.881 | -1.67 |
| COc1ccc(-n2nc(C(=O)N3CCN(c4cccc(Cl)c4)CC3)c3ccccc3c2=O)cc1 | 0.962 | -1.07 |
| COc1ccc(N2Cc3cccc(C(=O)Nc4ccc(C)c(F)c4)c3C2=O)cc1 | 0.615 | -7.15 |
| CCOC(=O)N1CCN(C(=O)Cn2nc(Cc3cccnc3)c3ccccc3c2=O)CC1 | 1.14 | 1.47 |
| Cn1cc(CC(=O)N2CCC(N3CCCCC3)CC2)c2ccccc21 | 0.965 | -0.618 |
| O=S(=O)(NC1CCCCC1n1cc(-c2ccccc2)nn1)c1ccc(Cl)cc1 (stereo not given) | 1.01 | 0.245 |
